RecA splice inh = blocks M. tuberculosis RecA intein splicing; P9WHJ3; cell-free RecA intein splicing, fluorescence; inhibition, %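 (about 9 µM by stock and volumes)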; actives 0.75% (n = 290,000); AID 2221; in the data active = inhibition above about 30%; inconclusive = no clear call, values can overlap the other calls;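 note: 0% = vehicle wells and 100% = reference inhibitor control wells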
Target sequence (P9WHJ3 whole entry, looked up, canonical isoform): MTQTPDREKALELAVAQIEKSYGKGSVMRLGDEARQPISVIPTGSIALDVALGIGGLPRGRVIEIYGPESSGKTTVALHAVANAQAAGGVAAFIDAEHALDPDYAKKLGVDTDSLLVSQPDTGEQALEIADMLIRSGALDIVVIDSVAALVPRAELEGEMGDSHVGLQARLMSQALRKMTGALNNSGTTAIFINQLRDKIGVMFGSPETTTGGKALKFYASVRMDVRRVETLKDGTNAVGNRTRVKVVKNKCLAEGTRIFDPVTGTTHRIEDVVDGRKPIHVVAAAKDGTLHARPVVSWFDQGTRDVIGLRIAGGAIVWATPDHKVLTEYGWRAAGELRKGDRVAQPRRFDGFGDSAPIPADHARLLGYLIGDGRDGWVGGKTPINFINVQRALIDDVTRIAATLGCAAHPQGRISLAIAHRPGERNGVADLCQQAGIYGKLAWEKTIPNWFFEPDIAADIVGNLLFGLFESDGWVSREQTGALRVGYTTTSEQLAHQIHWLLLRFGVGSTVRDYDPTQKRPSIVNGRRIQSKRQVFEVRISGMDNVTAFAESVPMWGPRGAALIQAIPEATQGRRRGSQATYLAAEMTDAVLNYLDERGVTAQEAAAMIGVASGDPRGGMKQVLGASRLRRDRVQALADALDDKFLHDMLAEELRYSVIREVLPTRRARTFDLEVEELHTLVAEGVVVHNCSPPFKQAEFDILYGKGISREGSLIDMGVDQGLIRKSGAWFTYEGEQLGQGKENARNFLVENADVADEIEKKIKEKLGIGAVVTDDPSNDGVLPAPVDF
Arbovirus inh = arbovirus infection inhibition; arbovirus infection cell-based antiviral screen; inhibition, % at 10 µM; actives 0.37% (n = 200,000);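 active = inhibition from about 30%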;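 note: bluetongue infection of BSR cells; cell survival read as ATP light after 72 h; 0% = infected wells without compound and 100% = uninfected wells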
Mtb H37Rv = M. tuberculosis H37Rv growth inhibitors, H37Rv strain (AID 1626); M. tuberculosis H37Rv growth inhibition; higher % means a stronger effect; inhibition, % at 10 µM, or IC50 in µM where a hit was titrated; actives 0.95% (n = 220,000);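 active = confirmed in a dose series; inconclusive = inhibition above 80% but not taken into the dose series; inactive = below 80% or under 30% at every dose of the series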;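 note: bacteria incubated seven days before Alamar blue readout; 0% = bacteria only wells and 100% = bacteria with antibiotic wells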
YopH PTP inh = inhibitors of Yersinia enterocolitica YopH tyrosine phosphatase. fluorescence Ex485/Em525. inhibition, %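 (about 10 µM by stock and volumes)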. actives 0.16% (n = 140,000);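 active = inhibition of 50% or more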;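 note: controls were vehicle for no effect and minimum signal wells for full effect; inactives centre near -20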
Mtb betalactam = beta-lactam sensitization of Mtb H37Rv. M. tuberculosis H37Rv growth with meropenem, percent inhibition; hits of this screen are not shown here. inhibition, % at 25 µM. actives 0.27% (n = 330,000);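 active = about 74% or more and at least 40 points above the plate without the antibiotic, then above 30% in a dose series; inconclusive = first-round hits that could not be retested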;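 note: growth measured after seven days incubation then overnight dye step; 0% = bacteria only wells and 100% = bacteria with antibiotic; twin plates without the antibiotic show which effects depend on it; some results filed as inactive read as strong as hits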
Arbovirus inh repeat = also measured in Arbovirus inh; calls as there; inhibition, %; measured here: 10K subset replicate screen; many hits read low in the repeat;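 first of two repeat runs on a subset; 0% = infected and 100% = uninfected wells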
* marks the source's active call; other numbers are inactive results; u = inconclusive; x = not tested or not shown. Only part of the results is shown; rates above refer to the full screens.

SMILES	RecA splice inh	Arbovirus inh	Mtb H37Rv	YopH PTP inh	Mtb betalactam	others
COC(=O)C1=C(C)N(Cc2ccccc2)C(=O)N[C@H]1c1ccco1	1.6	x	-7%	x	-14
CN(C)c1ccc(C(CNC(=O)c2ccccc2Br)c2c[nH]c3ccccc23)cc1 (configuration not stated)	5.5	-4	50%	4	-3
CCOC(=O)CN1C(=O)C(=O)N(Cc2cccc(C)c2)C1=O	-3.7	x	x	x	-10
CC(C)Cn1c(=O)[nH]c(=O)c2c(C(F)(F)F)cc(-c3ccccc3)nc21	2.9	x	9%	x	-7
CCOC(=O)N1CCN(C(=O)CCCCn2c(=S)[nH]c3ccsc3c2=O)CC1	3.1	3	5%	x	-9
O=C(Nc1cccc(-c2cn3c(n2)SCC3)c1)c1ccc(Br)o1	-1.8	-5	-4%	x	0
CC(NC(=O)c1cccc(N(C)C)c1)c1ccc(-n2ccnc2)cc1 (configuration not stated)	-5.0	x	x	x	-2
Cc1ccc(N2CC(C(=O)N3CCN(c4ccccc4)CC3)CC2=O)cc1 (configuration not stated)	-0.1	3	-6%	-13	10
COc1cc2c(cc1NC(=O)c1ccc3c(c1)OCO3)oc1ccccc12	-0.4	-10	-1%	-22	5
Cc1ccc(Cl)c(OCC(=O)Nc2ccc(S(=O)(=O)NC3=NCCCCC3)cc2)c1	0.7	x	x	x	3
CC(C)CCN(C(=O)Cc1ccc(Cl)c(Cl)c1)c1c(N)n(Cc2ccccc2)c(=O)[nH]c1=O	0.5	-23	5%	x	-1
CC1CCN(S(=O)(=O)c2cccc3cccnc23)CC1	2.3	x	x	x	-1
Cc1cccc(-c2nnc(SCC(=O)c3ccc(O)cc3O)n2C)c1	0.0	x	x	x	-2
CC(=O)Nc1ccc(C2=NNC(=Nc3ccc(S(=O)(=O)N4CCOCC4)cc3)SC2)cc1	-4.7	x	4%	x	0
O=C(CSc1nnc(C2CCCCC2)n1-c1ccccc1)NCc1ccco1	1.8	3	-7%	-1	3
C/C(=N\NC(=O)c1nnn(-c2nonc2N)c1-c1ccc2c(c1)OCO2)c1cccs1	1.2	x	x	x	4
COc1ccc(CN2CCCCCC2)cc1Br	-0.4	x	x	x	-5
CCN(Cc1ccncc1)S(=O)(=O)c1ccc(C(C)=O)cc1	3.9	0	-1%	-10	-27
CCN(CC)S(=O)(=O)c1ccc(N2CCCC2)c(NC(=O)Cc2ccc(OC)cc2)c1	5.2	-5	1%	x	-14
COc1ccc2cc(S(=O)(=O)NC3CC(C)(C)NC(C)(C)C3)ccc2c1	-1.9	x	x	x	-20
CCCCNC(=O)/C(=C\c1ccc([N+](=O)[O-])o1)NC(=O)c1ccccc1	x	-4	60%	x	85
O=[N+]([O-])c1ccc(S(=O)(=O)N/N=C/c2ccsc2)cc1	0.8	x	x	x	-2
O=C(CN1CCC(C(=O)c2ccc3c(c2)OCCO3)CC1)Nc1ccccc1F	2.1	x	x	x	-3
Cc1noc2ncnc(Oc3ccc(F)cc3)c12	7.9	2	-3%	-26	2
CN(CC(=O)N1CCCc2c1c(=O)oc1ccc(O)cc21)Cc1ccccc1	2.7	3	-3%	51*	-3

Ordered by length of the SMILES (low to high): some entries from above
SMILES	RecA splice inh	Arbovirus inh	Mtb H37Rv	YopH PTP inh	Mtb betalactam	others
COc1ccc(CN2CCCCCC2)cc1Br	-0.4	x	x	x	-5
Cc1noc2ncnc(Oc3ccc(F)cc3)c12	7.9	2	-3%	-26	2
CC1CCN(S(=O)(=O)c2cccc3cccnc23)CC1	2.3	x	x	x	-1
CCN(Cc1ccncc1)S(=O)(=O)c1ccc(C(C)=O)cc1	3.9	0	-1%	-10	-27
CCOC(=O)CN1C(=O)C(=O)N(Cc2cccc(C)c2)C1=O	-3.7	x	x	x	-10
O=C(CSc1nnc(C2CCCCC2)n1-c1ccccc1)NCc1ccco1	1.8	3	-7%	-1	3
CC(NC(=O)c1cccc(N(C)C)c1)c1ccc(-n2ccnc2)cc1 (configuration not stated)	-5.0	x	x	x	-2
O=[N+]([O-])c1ccc(S(=O)(=O)N/N=C/c2ccsc2)cc1	0.8	x	x	x	-2
Cc1ccc(N2CC(C(=O)N3CCN(c4ccccc4)CC3)CC2=O)cc1 (configuration not stated)	-0.1	3	-6%	-13	10
CN(CC(=O)N1CCCc2c1c(=O)oc1ccc(O)cc21)Cc1ccccc1	2.7	3	-3%	51*	-3
O=C(CN1CCC(C(=O)c2ccc3c(c2)OCCO3)CC1)Nc1ccccc1F	2.1	x	x	x	-3
COc1ccc2cc(S(=O)(=O)NC3CC(C)(C)NC(C)(C)C3)ccc2c1	-1.9	x	x	x	-20
CCOC(=O)N1CCN(C(=O)CCCCn2c(=S)[nH]c3ccsc3c2=O)CC1	3.1	3	5%	x	-9
CN(C)c1ccc(C(CNC(=O)c2ccccc2Br)c2c[nH]c3ccccc23)cc1 (configuration not stated)	5.5	-4	50%	4	-3
CC(C)Cn1c(=O)[nH]c(=O)c2c(C(F)(F)F)cc(-c3ccccc3)nc21	2.9	x	9%	x	-7
Cc1ccc(Cl)c(OCC(=O)Nc2ccc(S(=O)(=O)NC3=NCCCCC3)cc2)c1	0.7	x	x	x	3
CCN(CC)S(=O)(=O)c1ccc(N2CCCC2)c(NC(=O)Cc2ccc(OC)cc2)c1	5.2	-5	1%	x	-14
CC(=O)Nc1ccc(C2=NNC(=Nc3ccc(S(=O)(=O)N4CCOCC4)cc3)SC2)cc1	-4.7	x	4%	x	0
CC(C)CCN(C(=O)Cc1ccc(Cl)c(Cl)c1)c1c(N)n(Cc2ccccc2)c(=O)[nH]c1=O	0.5	-23	5%	x	-1

Next records follow.
SMILES	RecA splice inh	Arbovirus inh	Mtb H37Rv	YopH PTP inh	Mtb betalactam	others
O=C(NCCc1ccncc1)Nc1ccc(Cl)c(Cl)c1	1.1	9	7%	x	-9
O=C(N/N=C/C(Br)=C/c1ccccc1)c1ccncc1	11	x	u	x	99
COc1cc(NC(=O)COc2ccccc2[N+](=O)[O-])ccc1NC(=O)c1cccs1	-2.3	-3	-2%	x	x
CCc1nnc(NC(=O)CN2CCN(Cc3cccc(OC)c3)CC2)s1	-2.3	x	x	x	-1
O=C(CNCc1ccccc1)Nc1ccc(Cl)cc1	-0.3	x	x	x	-9
O=[N+]([O-])c1ccc(Sc2cccc3cccnc23)c([N+](=O)[O-])c1	-4.6	-17	33µM*	-6	u
COc1ccc(S(=O)(=O)N2CCCC2C(=O)n2nc(C)cc2C)cc1 (configuration not stated)	-0.2	-9	7%	x	1
O=C(C[n+]1ccc(-c2ccccc2)cc1)Nc1ccc([N+](=O)[O-])cc1	-0.9	x	x	x	u
CCOC(=O)c1nc2ccccc2c(C)c1C	-5.6	x	-1%	x	-4
COc1ccc(NC(=O)COc2cccc3c2CCN(C)C3=O)c(OC)c1	0.8	x	x	x	34
COc1ccc(NS(=O)(=O)c2cc(NC(=O)c3ccccc3F)ccc2N2CCCC2)cc1	7.8	x	4%	x	u
O=C(NCCc1ccccn1)c1cc(C(=O)C2CCCCC2)c[nH]1	0.7	-2	-3%	-26	7
CC1(C(=O)NC2CCCCC2)CCC(=O)N1Cc1ccc2c(c1)OCO2 (configuration not stated)	0.7	x	6%	x	-4
CCCCn1c(N)c(N(CCC(C)C)C(=O)C2=NN(c3cc(C)ccc3C)C(=O)CC2)c(=O)[nH]c1=O	1.4	x	x	x	-6
Cc1ccc(CS(=O)(=O)c2ccc(C(=O)N3CCN(c4ccccn4)CC3)cc2[N+](=O)[O-])cc1	-1.5	-4	-6%	x	38
COc1ccccc1CN1CC(C(=O)NCCc2ccc(C)o2)CCC1=O (configuration not stated)	-3.5	x	x	x	7
Oc1ccc(-c2csc(Nc3cccc4ccccc34)n2)cc1O	-3.7	x	x	x	4
CC(Sc1cccc(C(F)(F)F)c1)C(=O)NC(N)=O (configuration not stated)	-1.3	4	-3%	x	1
CCOC(=O)CCCSc1nc2sc(C)c(C)c2c(=O)[nH]1	-0.1	3	7%	-29	0	Arbovirus inh repeat=-3
COc1cccc2sc3ccc(NCc4ccc5c(c4)OCO5)cc3c(=O)c12	5.0	x	x	x	-5
O=C1c2ccccc2C(=O)N1C(CO)C(O)c1ccc([N+](=O)[O-])cc1 (configuration not stated)	-2.3	x	x	x	-5
O=C(Nc1ccc(Br)cc1F)c1ccncc1	1.0	-4	-1%	20	-13	Arbovirus inh repeat=3
CC(NS(=O)(=O)c1ccccc1)C(=O)NCc1ccco1 (configuration not stated)	3.9	7	-2%	-8	4
CCOC(=O)CCc1c(C)nc2c(c(C)nn2-c2ccc(C)cc2)c1C	0.4	x	x	x	6
N#C/C(=C\c1cn(Cc2ccc(F)cc2)c2ccccc12)C(=O)NCc1ccco1	-4.8	-2	5%	-24	4

Later entries.
SMILES	RecA splice inh	Arbovirus inh	Mtb H37Rv	YopH PTP inh	Mtb betalactam	others
Cc1ccc(C(=O)N2CCN(C(=O)N3CCOCC3)CC2)cc1	1.2	-2	7%	-3	-10
CCC1(CC)NC(=O)N(CC(=O)N2N=C(c3ccc(Cl)cc3)CC2c2ccco2)C1=O (configuration not stated)	7.7	3	1%	x	2
O=S(=O)(c1cccc2nonc12)N1CCN(c2ccccc2F)CC1	0.7	7	8%	x	1
Fc1cccc(-c2csc(-c3ccno3)n2)c1	2.6	x	0%	x	-5
CC1CCCCC1NC(=O)CN1CCC(O)(c2ccc3c(c2)OCO3)CC1 (configuration not stated)	x	4	2%	x	-9
O=c1[nH]c(CSc2nnc(Nc3ccccc3)s2)nc2ccccc12	-2.6	x	4%	x	-2
Cc1nc2c3ccccc3[nH]c(=O)n2n1	-2.4	-5	-5%	-31	-7
COc1ccccc1N(CC(=O)NCCSc1ccccn1)S(=O)(=O)c1ccccc1	19	x	x	x	-7
COc1ccc(N2CCN(C(=S)Nc3cc(C)ccc3C)CC2)cc1	0.2	-4	3%	-28	-2
Cc1ccc(NC(=O)C2CCN(C(=O)[C@@H]3Cc4ccccc4CN3)CC2)cc1	-3.1	x	x	x	10
Cc1ccc(NC(=O)CSc2n[nH]c(-c3cccnc3)n2)cc1Cl	0.9	x	x	x	86
CCN(CC(=O)Nc1ccc(NC(C)=O)cc1)C(=O)CSc1nnc(-c2ccco2)n1CC	-2.3	x	x	x	-2
Cc1ccc2cc(C#N)c(N3CCCN(S(=O)(=O)c4ccc(F)cc4)CC3)nc2c1	-1.5	-5	0%	-7	-6
CN(C(=O)CSc1nc(-c2ccccc2)cs1)C1CCS(=O)(=O)C1 (configuration not stated)	-1.8	0	0%	-11	0
c1ccc(Cc2nnc3sc(-c4ccc5c(c4)OCO5)nn23)cc1	0.4	x	-1%	-58	8
Cc1cccc(NP(C)(=O)c2nc3c(s2)CCCC3)c1 (configuration not stated)	0.1	2	-9%	-26	0
CCC(C)c1ccccc1NC(=O)COC(=O)C1=COCCO1 (configuration not stated)	4.9	4	46%	x	48
CCc1cc2c(-c3ccccc3)cc(=O)oc2cc1OC(=O)c1cccs1	5.1	7	11%	-39	9
CC1(C)OC(C)(C)/C(=C\c2ccccc2[N+](=O)[O-])C1=O	3.2	x	x	x	1
Cc1cc(Cl)ccc1OCCCC(=O)N1CCN(S(=O)(=O)c2ccccc2)CC1	11	x	x	x	-9
Cc1cc(SCC(=O)c2ccccc2)nc(=O)[nH]1	0.5	x	x	x	7
Cc1cc(C)c2cccc(NC(=S)NC(=O)c3ccccc3)c2n1	-2.6	-14	u	-13	94
Cc1cc(NC(=O)COc2cccc3cccnc23)no1	4.8	5	-6%	-3	x
O=S(=O)(c1ccc2c(c1)CCCN2)N1CCCC2CCCCC21 (configuration not stated)	9.2	x	-6%	x	-4

Some of these compounds in order of molar mass, largest number first.
SMILES	RecA splice inh	Arbovirus inh	Mtb H37Rv	YopH PTP inh	Mtb betalactam	others
COc1ccc(NS(=O)(=O)c2cc(NC(=O)c3ccccc3F)ccc2N2CCCC2)cc1	7.8	x	4%	x	u
C/C(=N\NC(=O)c1nnn(-c2nonc2N)c1-c1ccc2c(c1)OCO2)c1cccs1	1.2	x	x	x	4
CCC(C)c1ccccc1NC(=O)COC(=O)C1=COCCO1 (configuration not stated)	4.9	4	46%	x	48

Screens deposited in PubChem by several laboratories.
